Screening results from PubChem BioAssay.
NS1 inh = qHTS Assay for Inhibitors of Influenza NS1 Protein Function; S. cerevisiae slowed by influenza A NS1, growth recovery by OD600; Potency, µM (doses to about 46.1 µM), for inactives: top-dose activity, positive = more growth; 270,000 compounds, 0.4% hits; AID 2326, 2010; further: actives are rising curves; nearly all actives have a fitted effect of over 50% in size
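Recovery from NS1-induced slow growth read by OD600 in budding yeast switched to galactose assay medium (pH 6.0, -URA) at 1:100 dilution. Compound 23 nl per well; the matching strain lacking NS1 serves as control.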
SARS PLpro yeast = qHTS of Yeast-based Assay for SARS-CoV PLP; Potency, µM (series often up to 32.9 µM), for the others: top-dose activity, positive = growth rescue; S. cerevisiae expressing SARS-CoV PLpro, growth rescue; control for the full effect not named in the record; 330,000 compounds, 0.19% hits; further: 0% is about no effect; nearly all actives have a fitted effect of over 55% in size; growth read by luminescence after 48 h
StopGo reporter = High Throughput Screening for Foot and Mouth Disease Virus Antivirals | human cells with a luciferase reporter of 2A StopGo recoding; control for the full effect not named in the record | Potency, µM (titrated, usually from 57.9 µM), for the others: at the top dose signal change, negative = less light | 410,000 compounds, 1.2% hits | AID 1159524, 2015; active = well fitted falling curve with a large enough effect; inconclusive = small, poorly fitted or top-dose-only effect; inactive = no such curve, though single readings can be large or run the other way; tested in HEK293T cells; further: on the % scale 0 is the no-effect control and ±100 the full control effect; nearly all actives have a fitted effect of over 45% in size; luciferase light after 4 h
An asterisk follows results filed as active; u = inconclusive; x = no result given; & = joins results of further samples; ! = a repeat was not active; [ ] = another dose, or the depositor's remark. Unless noted, the call rests on the fitted dose curve; in most records, active means well fitted rising curve with a large enough effect; inconclusive means small, poorly fitted or top-dose-only effect; inactive means no such curve, though single readings can be large or run the other way. Potency means the concentration at half of the fitted maximal effect.

1	COc1ccc2c(c1)oc1c(SCc3nc4ccccc4[nH]3)nc(C)nc12
2	Cn1nnnc1Sc1ncnc2scc(-c3ccc([N+](=O)[O-])cc3)c12
3	CCOC(=O)CC(=O)Nc1ncnc2c1C(c1ccccc1)c1c(ccc3ccccc13)O2 (stereo not drawn)
4	CC(=O)NC(c1cc(Cl)c2ccccc2c1O)C(C)C (stereo not drawn)
5	CS(=O)(=O)c1cccc(-c2csc(N3CCC(C(N)=O)CC3)n2)c1
assay / compound,1,2,3,4,5
NS1 inh,x,x,x,x,x
SARS PLpro yeast,3%,-7%,-1%,6%,-13%&0%
StopGo reporter,5%,11µM*,u,-27%,17%

6	Oc1cc(NCc2ccc(Cl)cc2)cc2cccnc12
7	Cc1nc(SCc2nc3ccccc3[nH]2)c2oc3cc(Br)ccc3c2n1
8	CC(Cc1ccccc1)(NC(=O)CN)c1ccccc1 (stereo not drawn)
9	O=c1c2ccccc2nc2sc(Nc3ccc(F)cc3)nn12
10	NC(=O)c1cccc(-c2noc(-c3ccccc3F)n2)c1
assay / compound,6,7,8,9,10
NS1 inh,x,x,x,x,x
SARS PLpro yeast,-2%&-7%,8%,-1%,-2%,-2%&0%
StopGo reporter,-11%,-23%,-2%,64%[activator],u

11	c1cncc(CNc2ncnc3ccc(-c4ccc5c(c4)OCO5)cc23)c1
12	O=S(=O)(NCCCCCCNS(=O)(=O)c1c(F)cccc1F)c1ccc2c(c1)OCCO2
13	Cc1nc(SCc2nc3ccc(C(=O)c4ccccc4)cc3[nH]2)c2oc3ccccc3c2n1
14	O=C1NC(=O)/C(=C/c2ccco2)N1
15	COc1ccc(OC)c(-c2nnc3n2N=C(c2ccc(OC(F)F)c(OCC4CC4)c2)CS3)c1
assay / compound,11,12,13,14,15
NS1 inh,x,x,x,x,x
SARS PLpro yeast,7%&3%,-10%,-2%,-23%,5%
StopGo reporter,0%,3%,-8%,-10%,u

16	Cc1nc(SCc2nc3ccc(C(F)(F)F)cc3[nH]2)c2oc3ccccc3c2n1
17	Cn1nnnc1Sc1ncnc2scc(-c3cccc(S(C)(=O)=O)c3)c12
18	Clc1ccccc1-c1ccc2ncnc(NCc3ccc4c(c3)OCO4)c2c1
19	Cc1nc(SCc2nc3ccccc3[nH]2)c2oc3ccc(Br)cc3c2n1
20	CCC(=O)NC(c1cc(Cl)c2ccccc2c1O)C1CC1 (stereo not drawn)
assay / compound,16,17,18,19,20
NS1 inh,x,x,x,x,x
SARS PLpro yeast,-8%,-5%,-7%&-2%,2%,-6%
StopGo reporter,-23%,-24%,-11%,35µM*,-14%

Along the list, quoted from above.
StopGo reporter, nos. 1 to 7 → 5%, 11µM*, u, -27%, 17%, -11%, -23%

As entered above.
Value for Cn1nnnc1Sc1ncnc2scc(-c3ccc([N+](=O)[O-])cc3)c12 under StopGo reporter: 11µM*
Value for Cn1nnnc1Sc1ncnc2scc(-c3cccc(S(C)(=O)=O)c3)c12 under StopGo reporter: -24%

Later entries.
21	Cc1ccc(NC(=O)CN2C(=O)N/C(=C\c3ccco3)C2=O)cc1
22	O=S(=O)(c1ccc2c(c1)OCCO2)C1CCC(S(=O)(=O)c2c(F)cccc2F)CC1 (stereo not drawn)
23	Clc1ccccc1-c1ccc2ncnc(NCc3cccs3)c2c1
24	NC(=O)C1CCN(c2nc(-c3ccccc3N)cs2)CC1
25	COc1cccc(-c2ccc3ncnc(NCc4cc(C)cs4)c3c2)c1
assay / compound,21,22,23,24,25
NS1 inh,x,x,x,x,x
SARS PLpro yeast,5%,4%&9%,11%&-3%,-3%&3%,6.3µM*!
StopGo reporter,-14%,1%,-19%,4%,-28%

26	O=C(OCC#CCSc1nnc(-c2cccc3ccccc23)o1)c1cc2ccccc2o1
27	COc1cccc(-c2ccc3ncnc(NCc4cccc(C)c4)c3c2)c1
28	NC(=O)C1CCN(c2nc(-c3cc4ccccc4o3)cs2)CC1
29	C[C@@H]1CN(S(=O)(=O)c2c(F)cccc2F)CCN1S(=O)(=O)c1ccc2c(c1)OCCO2
30	Cc1cc2c(s1)c1cnn(-c3ccccc3)c(=O)c1n2C
assay / compound,26,27,28,29,30
NS1 inh,x,x,x,x,x
SARS PLpro yeast,-10%&2%,u,-7%&3%,-3%,-1%&9%
StopGo reporter,13%,-25%,27%,-8%,-9%

31	O=C1c2ccccc2NC(c2ccc(-c3ccc(C(F)(F)F)cc3)o2)N1O (stereo not drawn)
32	C/C(=C\c1ccc2c(c1)OCO2)C1Nc2cccc3cccc(c23)N1
33	O=S(=O)(NC1CCN(S(=O)(=O)c2c(F)cccc2F)C1)c1ccc2c(c1)OCCO2 (stereo not drawn)
34	N#Cc1nc(-c2cccc3ccccc23)oc1N
35	CC(=O)N1CCN(c2ccc(NCc3ccc(-c4cccc(Cl)c4)o3)cc2)CC1
assay / compound,31,32,33,34,35
NS1 inh,x,x,x,x,x
SARS PLpro yeast,13%,2%,1%,u,8%
StopGo reporter,-24%,7%,15%,21%,u

36	O=C(NNC(=O)c1nc2ccccc2[nH]1)OCc1ccccc1
37	O=S(=O)(c1ccc2c(c1)OCCO2)N1CCCN(S(=O)(=O)c2c(F)cccc2F)CC1
38	Cn1nnnc1Sc1ncnc2scc(-c3ccc(-c4ccccc4)cc3)c12
39	O=C(O)/C=C/C(=O)N1Cc2cc3ccccc3nc2C1
40	O=c1cc(CSc2ccc(Cl)cc2)nc(-c2ccccn2)[nH]1
assay / compound,36,37,38,39,40
NS1 inh,x,x,x,8%,-96%
SARS PLpro yeast,1%,8%,-2%,0%,-5%
StopGo reporter,0%,-15%,u,-11%,u

41	CCCCCCCCCC[N+](C)(C)CC/C=C1/c2ccccc2Sc2ccc(Cl)cc21
42	Cn1c(=O)c2[nH]c(CNc3ccc(C(=O)O)cc3)nc2n(C)c1=O
43	Cc1ccc(NC(=O)N2CCCCC2)cc1NC(=O)N1CCCCC1
44	CC(C)C(=O)Nc1nnc(CCc2ccccc2)s1
45	Cc1ncc([N+](=O)[O-])n1CCOC(N)=O
assay / compound,41,42,43,44,45
NS1 inh,-4%,1%,6%,-10%,3%
SARS PLpro yeast,-2%,0%,0%,-2%,-1%
StopGo reporter,u,-2%,-15%,13%,-18%

46	O=C(O)CC(CC(=O)NCC(O)c1ccccc1)c1ccccc1 (stereo not drawn)
47	O=[N+]([O-])c1ccc(-c2ccccc2)c([As](=O)(O)O)c1
48	O=C(COc1cc(Cl)c(Cl)cc1Cl)Nc1cccc(O)c1
49	Cn1cnc([N+](=O)[O-])c1Sc1ncn[nH]1
50	OCC1OC(n2cnc3ccccc32)CC1O (stereo not drawn)
assay / compound,46,47,48,49,50
NS1 inh,-1%,-5%,-6%,10%,-2%
SARS PLpro yeast,1%,1%,-3%,0%,-1%
StopGo reporter,-10%,-24%,31%[activator],-24%,-20%

51	CCc1ccc(S(=O)(=O)Nc2ccc(O)c3ccccc23)cc1
52	COC(=O)c1ccc(N2CCN(c3ccccc3)CC2)c(N)c1
53	CC(C)(C)C(=O)N(Cc1ccc(Cl)cc1)c1cnccn1
54	Cc1cc(C)c(S(=O)(=O)c2ccc(F)cc2C)c(Cl)n1
55	COC(=O)c1ccc(COc2ccc(C(C)(C)C)cc2)o1
assay / compound,51,52,53,54,55
NS1 inh,2%,1%,-2%,-5%,-11%
SARS PLpro yeast,-3%,0%,-1%,0%,-4%
StopGo reporter,-26%,22%,u,-4%,14%

56	O=C(CCSc1ccc(Br)cc1)c1ccc(O)cc1
57	CC(C)(C)Nc1nc(-c2ccccn2)nc2ccccc12
58	CCCn1nc(NC(=O)COC)c2cc3cccc(C)c3nc21
59	O=[N+]([O-])/C=C/c1cc2ccccc2[nH]1
60	C=C1SC(=Nc2c(C)cc(C)cc2C)N(C(=O)c2sc3ccccc3c2Cl)C12CCCCC2
assay / compound,56,57,58,59,60
NS1 inh,-95%,-48%,1%,-75%,-6%
SARS PLpro yeast,-11%,1%,-1%,-7%,-1%
StopGo reporter,25%,u,-21%,u,-20%

61	Cc1c(F)cccc1NS(=O)(=O)c1ccc2c(c1)c(C)cc(=O)n2C
62	CN1CC(=O)Nc2ccc(Br)cc2C1=O
63	O=C(O)CCc1cccnc1
64	COc1ccc(S(=O)(=O)CC(=O)c2cc(C)c(O)c(C)c2)cc1
65	Cc1cccc(Nc2sc(C(=O)c3cc4cc(Cl)ccc4o3)c(N)c2C#N)c1
assay / compound,61,62,63,64,65
NS1 inh,-5%,4%,9%,3%,u
SARS PLpro yeast,9%,0%,5%,2%,-2%
StopGo reporter,29%,-17%,-16%,-5%,-2%

66	O=[N+]([O-])c1ccc(NCCc2ccccc2)c(Br)c1
67	Cc1cc2nc(-c3ccc(=O)[nH]c3)n(Cc3ccccc3)c2cc1C
68	Nc1ccc(SCc2nc3cccc4c3n2CCC4)cc1
69	COC(=O)c1scc2c(=O)cc(C(F)(F)F)[nH]c12
70	COc1cc2c(cc1OC)C(C)N(S(=O)(=O)c1ccc(C)cc1)CC2 (stereo not drawn)
assay / compound,66,67,68,69,70
NS1 inh,-6%,-3%,12%,-32%,-32%
SARS PLpro yeast,-6%,-1%,0%,6%,0%
StopGo reporter,-4%,14%,37%,-19%,-9%

71	Cc1ccc(/C=C/c2ccc(N(C)C)cc2)[n+](C)c1
72	CC(=O)Cn1ncc(N2CCOCC2)c(Cl)c1=O
73	CSc1ccc(NC(=O)Nc2ccc(C(=O)NCC(=O)O)cc2)cc1
74	Cn1c(=O)[nH]c(=O)c2c1[nH]c(=S)n2Cc1ccc(Cl)cc1
75	CCN(CC)C(=O)c1ccc2c(c1)C1C=CCC1C(C(=O)O)N2 (stereo not drawn)
assay / compound,71,72,73,74,75
NS1 inh,2%,0%,-2%,9%,5%
SARS PLpro yeast,1%,0%,1%,1%,-2%
StopGo reporter,-17%,-6%,20%,2%,-27%

76	Oc1cccc(Nc2c3ccccc3nc3ccccc23)c1
77	CC(C)(C)C(=O)Cn1ncc(N2CCOCC2)c(Cl)c1=O
78	Cc1ccc(CNC(=O)CCCc2cn(C)c3ccccc23)cc1
79	COc1ccc(C2OC3=C(Nc4cc(C)c(C)cc4N3)C2=O)cc1 (stereo not drawn)
80	c1ccc(-c2nnc(CN3CCCCC3)o2)cc1
assay / compound,76,77,78,79,80
NS1 inh,-48%,-1%,-7%,-6%,5%
SARS PLpro yeast,-13%,0%,0%,1%,-2%
StopGo reporter,u,13%,49%[activator],67%[activator],55%[activator]

Record cards, as listed above:
Profile of CN1CC(=O)Nc2ccc(Br)cc2C1=O → NS1 inh = 4%; SARS PLpro yeast = 0%; StopGo reporter = -17%
Profile of O=C1c2ccccc2NC(c2ccc(-c3ccc(C(F)(F)F)cc3)o2)N1O (stereo not drawn) → NS1 inh = x; SARS PLpro yeast = 13%; StopGo reporter = -24%

Later entries:
81	COC(=O)c1cnc(SCC(=O)c2ccccc2)n1C
82	O=C(/C=C/C=C/c1ccccc1)c1ccco1
83	CC(=O)Nc1ccc(N2C(=O)c3cccc4c(O)ccc(c34)C2=O)cc1
84	C/C(=N\N1CCCCC1)c1ccccc1O
85	O=C(Nc1cccc2ccccc12)c1cc2c(cc1Br)OCO2
assay / compound,81,82,83,84,85
NS1 inh,1%,-11%,8%,2%,-4%
SARS PLpro yeast,-2%,-2%,1%,0%,-2%
StopGo reporter,37%[activator],40%[activator],-15%,27%,-1%

86	NS(=O)(=O)c1ccc(Cl)cc1[N+](=O)[O-]
87	Nc1ccc2c(c1Cl)C(=O)c1ccc(N)c(Cl)c1C2=O
88	C=C(C)CSc1nc2sc3c(c2c(=O)n1-c1ccccc1)CCN(C)C3
89	COc1ccc(CNc2cccc3[nH]c(C(F)(F)F)nc23)cc1OC
90	CC(=O)c1cccc(Oc2ncccn2)c1
assay / compound,86,87,88,89,90
NS1 inh,-5%,6%,u,u,0%
SARS PLpro yeast,2%,2%,1%,0%,-2%
StopGo reporter,-11%,55%[activator],-17%,-24%,9%

91	c1ccc(NNC2=NCCCCC2)cc1
92	Cc1ccc(COc2ccc(-c3nnco3)cc2)cc1
93	CNC1(C(N)=O)CCNCC1
94	C[C@]12CCC3C(CCC4=C/C(=N/OCC(=O)NC(CCC(N)=O)C(=O)O)CC[C@@]43C)C1CCC2O (stereo partly drawn)
95	CCCCNC(=O)CCn1nc(-c2ccccc2)c2ccccc2c1=O
assay / compound,91,92,93,94,95
NS1 inh,-9%,-59%,1%,1%,-3%
SARS PLpro yeast,0%,-2%,-1%,1%,0%
StopGo reporter,-20%,62%[activator],-12%,0%,14%

96	COc1ccc(C(=O)/C=C2/C(=O)Nc3ccccc32)cc1OC
97	NC(=O)c1cc2ccncc2c2ccccc12
98	CC(C)C(=O)Nc1cccnc1
99	COc1ccc(N2C(=O)/C(=C/c3ccco3)C(=O)NC2=S)cc1
assay / compound,96,97,98,99
NS1 inh,2%,-2%,5%,8%
SARS PLpro yeast,0%,0%,-2%,-2%
StopGo reporter,32µM*,-16%,-16%,u

Only part of the results is shown, so the mix of outcomes need not match the whole.
